# Screening data: PubChem BioAssay, several laboratories
# Mtb H37Rv – M. tuberculosis H37Rv growth inhibitors, H37Rv strain (AID 1626). one-dose inhibition, % at 10 µM; IC50 in µM for titrated hits. M. tuberculosis H37Rv growth inhibition; higher % means a stronger effect. actives 0.95% (n = 220,000);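 active means confirmed in a dose series; inconclusive means inhibition above 80% but not taken into the dose series; inactive means below 80% or under 30% at every dose of the series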;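 further: bacteria incubated seven days before Alamar blue readout; 0% = bacteria only wells and 100% = bacteria with antibiotic wells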
# Arbovirus inh – arbovirus infection inhibition | arbovirus infection cell-based antiviral screen | inhibition, % at 10 µM | actives 0.37% (n = 200,000);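 active means inhibition from about 30%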;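 further: bluetongue infection of BSR cells; cell survival read as ATP light after 72 h; 0% = infected wells without compound and 100% = uninfected wells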
# YopH inh – blocks Yersinia enterocolitica YopH tyrosine phosphatase; fluorescence Ex485/Em525; AID 898; inhibition, %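 (about 10 µM by stock and volumes)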; actives 0.16% (n = 140,000);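 active means inhibition of 50% or more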;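 further: controls were vehicle for no effect and minimum signal wells for full effect; inactives centre near -20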
# RecA splice inh – inhibitors of M. tuberculosis RecA intein splicing | inhibition, %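 (about 9 µM by stock and volumes)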 | cell-free RecA intein splicing, fluorescence | actives 0.75% (n = 290,000); in the data active means inhibition above about 30%; inconclusive means no clear call, values can overlap the other calls;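 further: 0% = vehicle wells and 100% = reference inhibitor control wells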
# Target sequence (P9WHJ3 whole entry, looked up, canonical isoform): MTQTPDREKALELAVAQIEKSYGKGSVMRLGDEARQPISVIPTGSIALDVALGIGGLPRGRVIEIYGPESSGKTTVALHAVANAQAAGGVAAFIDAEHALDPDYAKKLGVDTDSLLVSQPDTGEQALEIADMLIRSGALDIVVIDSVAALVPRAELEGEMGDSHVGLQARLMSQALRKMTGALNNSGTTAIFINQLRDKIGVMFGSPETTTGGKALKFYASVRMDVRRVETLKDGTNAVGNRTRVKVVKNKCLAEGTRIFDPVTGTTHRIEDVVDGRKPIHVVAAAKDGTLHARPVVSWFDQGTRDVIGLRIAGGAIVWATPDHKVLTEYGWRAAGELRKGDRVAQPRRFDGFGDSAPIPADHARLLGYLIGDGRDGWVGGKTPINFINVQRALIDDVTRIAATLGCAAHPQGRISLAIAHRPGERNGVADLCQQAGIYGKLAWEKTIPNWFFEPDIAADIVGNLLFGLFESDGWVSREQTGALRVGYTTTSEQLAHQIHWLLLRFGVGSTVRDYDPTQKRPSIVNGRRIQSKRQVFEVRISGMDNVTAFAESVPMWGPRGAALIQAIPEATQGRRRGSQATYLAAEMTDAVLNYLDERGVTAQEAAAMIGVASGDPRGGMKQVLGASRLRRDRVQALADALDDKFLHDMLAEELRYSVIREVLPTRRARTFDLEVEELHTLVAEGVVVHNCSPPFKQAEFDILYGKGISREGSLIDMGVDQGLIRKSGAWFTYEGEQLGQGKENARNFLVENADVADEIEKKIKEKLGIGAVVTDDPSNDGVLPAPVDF
# Mtb bLac sens – beta-lactam sensitization of Mtb H37Rv; inhibition, % at 25 µM; M. tuberculosis H37Rv growth with meropenem, percent inhibition; hits of this screen are not shown here; AID 434955; actives 0.27% (n = 330,000);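 active means about 74% or more and at least 40 points above the plate without the antibiotic, then above 30% in a dose series; inconclusive means first-round hits that could not be retested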;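 further: growth measured after seven days incubation then overnight dye step; 0% = bacteria only wells and 100% = bacteria with antibiotic; twin plates without the antibiotic show which effects depend on it; some results filed as inactive read as strong as hits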
# Arbovirus inh repeat – second read-out of Arbovirus inh, no call of its own (marks repeat the call); inhibition, %; measured here: 10K subset replicate screen; many hits read low in the repeat;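 first of two repeat runs on a subset; 0% = infected and 100% = uninfected wells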
# Numbers without * were called inactive; u = inconclusive; x = no result given; & = joins results of further samples. Some of the compounds tested (hit frequency here may not be typical).
SMILES,Mtb H37Rv,Arbovirus inh,YopH inh,RecA splice inh,Mtb bLac sens,others
CCc1ccc(/C=C2/Sc3ccccc3N(CC(=O)NCCCN3CCOCC3)C2=O)cc1,x,x,x,-1.2,14,
Cc1noc(C)c1S(=O)(=O)Nc1ccc(C(=O)NC2CCCCCC2)cc1,x,3,-5,1.5,-3,
CCSc1nnc(NC(=O)C(C)(C(F)(F)F)C(F)(F)F)s1,1%,11,-54,-1.1,7,
CC(C)(C)OC(=O)CN1c2cccc3cccc(c23)S1(=O)=O,x,x,x,-0.9,-3,
COc1ccc(-n2c(SCC(=O)c3ccc[nH]3)nnc2-c2ccccc2)cc1,7%,8,-18,2.3,8,
Cc1ccc(S(=O)(=O)NCC(c2cccnc2)N2CCc3ccccc32)cc1 (configuration not stated),x,x,x,2.5,7,
C=CCn1cnc2c(nnn2-c2ccc(Cl)cc2)c1=O,2%,22,x,-0.1,14,
CNCC(O)C(O)C(O)C(O)CO (configuration not stated),-5%,5,x,-1.8,-9,
Cn1cnc(S(=O)(=O)N2CCN(C(c3ccccc3)c3ccccc3)CC2)c1,x,x,x,-2.2,2,
O=C(NCc1ccccc1)NC1(C(=O)N2CCOCC2)CCCCC1,1%,2,-41,-1.3,-3,
C/C(Cc1ccccc1)=N\NC(=O)CNC(=O)c1ccc2c(c1)OCCO2,-12%,x,x,-0.7,-11,
Cc1ccc(OP(=O)(Nc2c(C)n(C)n(-c3ccccc3)c2=O)Oc2ccc(C)cc2)cc1,-3%,4,-29,0.8,3,
CC1(C)C(=O)OC(c2c(F)c(F)c(F)c(F)c2F)C2(CCCCC2)C1=O (configuration not stated),-3%,11,-7,-3.0,3,
O=C(O)CSc1nnc(Cn2nnc3ccccc32)n1CCc1ccccc1,-14%,1,-18,-3.4,4,
CC(C)OC(=O)c1ccc(NC(=O)Cn2c(-c3nonc3N)nc3ccccc32)cc1,-3%,-9,-14,-0.8,-1,

# The final two records of the section above are carried over, then new ones follow:
SMILES,Mtb H37Rv,Arbovirus inh,YopH inh,RecA splice inh,Mtb bLac sens,others
O=C(O)CSc1nnc(Cn2nnc3ccccc32)n1CCc1ccccc1,-14%,1,-18,-3.4,4,
CC(C)OC(=O)c1ccc(NC(=O)Cn2c(-c3nonc3N)nc3ccccc32)cc1,-3%,-9,-14,-0.8,-1,
CCCCNC(=S)NNC(=O)c1csc2ccccc12,-1%,1,-10,2.5,0,
O=C(c1cnn(-c2ccccc2)c1)c1ccc2ccccc2c1O,-1%,7,-16,3.9,0,
COCCN1C(=O)N[C@@H](c2ccco2)C(C(C)=O)=C1C,-7%,3,-30,-1.5,-20,
COc1cc(S(=O)(=O)N2CCCCC2)ccc1NC(C)=O,-2%,3,-19,-0.4,-6,
Cc1ccccc1C(=O)NC1CCN(CC(=O)NCc2cccs2)CC1,3%,2,x,-0.8,-5,
O=C(Nc1cc(F)ccc1F)c1ccc(-n2cncn2)c([N+](=O)[O-])c1,x,x,x,-3.6,-19,
O=C(NC1CCCCC1)c1ccccc1NC(=O)C1CC(=O)N(c2ccc(Cl)cc2)C1 (configuration not stated),0%,-4,0,4.7,16,
CCOC(=O)c1cnc2ccc(OC)cc2c1Nc1ccc(N2CCN(C)CC2)cc1,x,x,x,4.8,30,
COc1cc(NC(=O)C2CCCN2C(=O)C2CCC(C)CC2)cc(OC)c1OC (configuration not stated),-2%,10,-21,-0.7,-3,Arbovirus inh repeat=9
c1ccc(-c2noc(CC3CCCCC3)n2)nc1,-2%,-10,x,0.3,3,
O=C(Cc1ccccc1)NNC(=O)c1cccs1,-15%,1,-22,x,-8,
Cc1cc(Cl)ccc1OCC(=O)Nc1ccccc1N1CCOCC1,-6%,16,36,x,1,
COc1ccccc1NC(=O)Nc1ccccc1Br,1%,6,x,-2.0,2,
CCC(OC(=O)CNS(=O)(=O)c1ccccc1)C(=O)c1ccccc1 (configuration not stated),x,x,x,-0.4,8,
CN1C(=O)C(=Cc2ccc(SC3CCCCC3)o2)C(=O)N(C)C1=O,16%,4,x,1.9,36,
COC(=O)c1nc2nc(C)cc(=O)n2[nH]1,-9%,4,-15,-1.0,-10,
Nc1cc(=O)[nH]c(SCC(=O)N2N=C(c3ccc(Cl)cc3)CC2c2ccco2)n1 (configuration not stated),7%,3,x,2.1,7,
CCCCNC(=O)OCC(CC)NC(=O)OC(C)C (configuration not stated),0%,1,-36,1.7,7,
COc1ccc([N+](=O)[O-])c2c(=O)ccoc12,-4%,6,-6,-4.1,7,
CC1CN2C(c3ccc([N+](=O)[O-])cc3)=CSC2=N1 (configuration not stated),x,x,x,-3.4,1,
Cc1cc2ccccc2cc1CN1CCCCC1,x,x,x,1.1,-4,
O=[N+]([O-])c1cccc(/C=N/n2cnnc2)c1,0%,x,x,-0.5,-6,
Cc1ccc(/C=N/NC(=S)NC(C)C)o1,11%,9,11,1.8,96,
O=c1[nH]c2ccccc2c(=O)n1Cc1ccco1,-3%,11,-40,-2.6,-10,
O=C(COc1ccccc1Cl)NCC(c1cccs1)N1CCOCC1 (configuration not stated),x,x,x,-3.8,-13,
COc1ccc(S(=O)(=O)Nc2ccccc2C(=O)NCc2ccco2)cc1Br,-8%,8,-10,12,-4,
S=C(NCc1ccncc1)NC1CCCC1,2%,4,x,0.8,6,
COc1ccc(Cn2c(CCC(=O)N3CCN(c4ccccn4)CC3)nc3ncccc3c2=O)cc1,-14%,8,-18,x,x,
Cc1nc2cc(-c3cccc(F)c3)nn2c(C)c1CCC(=O)NC(C)c1ccc2c(c1)OCCO2 (configuration not stated),x,-7,-19,1.7,-1,
CC(C)CNc1cc(=O)n(C)c(=O)n1C,6%,5,15,0.1,-8,
COc1cc(C(=O)Nc2cccc(-c3nc4ccccc4o3)c2C)cc(OC)c1OC,-11%,-3,3,-5.4,x,Arbovirus inh repeat=-3
Cc1cc(NC(=O)CSc2nnc(Cc3ccccc3)n2C)no1,-8%,4,8,-1.6,-3,
O=C(NC(NC(=S)Nc1cccc(C(=O)O)c1)C(Cl)(Cl)Cl)OCc1ccccc1 (configuration not stated),1%,0,-50,-0.7,-6,
O=C(COC(=O)c1ccco1)Nc1ccc2c(c1)OCCO2,0%,-4,-36,-1.1,-1,
CC(C)Oc1ccc(/C=C(\NC(=O)/C=C/c2ccco2)C(=O)NCCc2nc3ccccc3[nH]2)cc1,u,11,-19,12,98,
N=c1c[n+](N2CCOCC2)[n-]o1,1%&2%,0,-10,4.1&7.2,1&-3,
O=[N+]([O-])c1cnc(Nc2ccccc2)nc1Nc1ccccc1,x,x,x,-3.4,-8,
CN1CCN(C(=O)c2cc3nc(-c4ccc(Cl)cc4)cc(C(F)(F)F)n3n2)CC1,-1%,3,-29,-6.3,-6,
O=C(N/N=C\c1ccc([N+](=O)[O-])s1)C1COc2ccccc2O1 (configuration not stated),x,x,x,-3.0,100,
CC(C)OC(=O)CC1C(=O)NCCN1C(=S)NC(=O)c1ccccc1Cl (configuration not stated),3%,2,x,-2.8,-2,
CCn1c(SC)nnc1-c1nn(-c2ccccc2)ccc1=O,6%,0,x,-3.5,-2,
O=C(Nc1ccc(N2CCN(C(=O)c3ccc(Cl)cc3)CC2)cc1)c1ccc(Br)o1,u,-45,0,1.7,99,
Cc1cc(NC(=O)CSc2nnc(-c3ccncc3)n2N)ccc1Br,56%,5,-38,1.3,67,
Cc1ccc(-n2ncc3c2CC(C)(C)CC3NC(=O)Cc2c(C)noc2C)cc1 (configuration not stated),x,x,x,1.6,7,
COc1ccc([N+](=O)[O-])cc1NC(=O)CCN1CCN(c2ccccc2OC)CC1,-17%,0,-40,-1.4,-2,

# Next section, starting with the last 3 of the part before.
SMILES,Mtb H37Rv,Arbovirus inh,YopH inh,RecA splice inh,Mtb bLac sens,others
Cc1cc(NC(=O)CSc2nnc(-c3ccncc3)n2N)ccc1Br,56%,5,-38,1.3,67,
Cc1ccc(-n2ncc3c2CC(C)(C)CC3NC(=O)Cc2c(C)noc2C)cc1 (configuration not stated),x,x,x,1.6,7,
COc1ccc([N+](=O)[O-])cc1NC(=O)CCN1CCN(c2ccccc2OC)CC1,-17%,0,-40,-1.4,-2,
CC1(C(=O)NCc2ccc(F)cc2)Oc2ccccc2NC1=O (configuration not stated),-4%,-1,x,-0.5,-8,
CC(NC(=O)c1ccc(S(=O)(=O)N(C)C)cc1)c1ccc(-n2ccnc2)cc1 (configuration not stated),x,x,x,-1.2,-6,
COc1cccc(NC(=O)CSc2nncn2N)c1,2%,1,-37,-1.4,-4,
CC1CCN(C(=O)c2ccc(S(=O)(=O)Cc3cccc(F)c3)c([N+](=O)[O-])c2)CC1,0%,1,-20,-1.6,3,
CCCC(=O)Nc1ccccc1-c1nnn(CC(=O)Nc2ccc(OC)cc2)n1,-5%,5,-17,-0.7,-11,
CCCC(=O)N1CCN(c2ccc(NC(=O)C(C)(C)C)cc2Cl)CC1,-2%,-2,x,2.7,3,
C(=N\NC1=NCCN1)/c1ccncc1,x,x,x,-0.4,-8,
O=C1C(=O)N(CCCO)C(c2ccccc2)/C1=C(\O)c1ccc(Br)cc1 (configuration not stated),x,x,x,2.4,-1,
CCOc1ccc2c(c1)C(c1cccs1)=NNC(c1cccnc1)=N2,10%,-1,x,3.8,66,
O=C(Nc1c[nH]c2c(Cl)cccc2c1=O)N1CCN(c2ccccn2)CC1,x,x,x,-3.3,0,
O=C(CNC(=O)c1[nH]cnc1C(=O)N[C@@H](Cc1ccccc1)C(=O)OCc1ccccc1)OCc1ccccc1,x,x,x,3.0,-10,
Cc1c(C(=O)O)c(-c2ccccc2)nn1-c1ccccc1,-10%,0,4,10,1,
COc1cc(CN2CCCC(CO)(Cc3cccc(Cl)c3)C2)cc(OC)c1O (configuration not stated),x,x,x,-2.9,3,
COc1cc(/C=C2/SC(=S)N(c3c(C)n(C)n(-c4ccccc4)c3=O)C2=O)ccc1O,5%,4,x,4.3,-4,
O=C(OCC(=O)N1CCc2ccccc21)c1ccccc1F,x,x,x,-1.7,5,

# Ordered by formula weight (highest first): four of the compounds above.
SMILES,Mtb H37Rv,Arbovirus inh,YopH inh,RecA splice inh,Mtb bLac sens,others
O=C(CNC(=O)c1[nH]cnc1C(=O)N[C@@H](Cc1ccccc1)C(=O)OCc1ccccc1)OCc1ccccc1,x,x,x,3.0,-10,
CC(NC(=O)c1ccc(S(=O)(=O)N(C)C)cc1)c1ccc(-n2ccnc2)cc1 (configuration not stated),x,x,x,-1.2,-6,
CCOc1ccc2c(c1)C(c1cccs1)=NNC(c1cccnc1)=N2,10%,-1,x,3.8,66,
O=C(OCC(=O)N1CCc2ccccc21)c1ccccc1F,x,x,x,-1.7,5,

# Next compounds
SMILES,Mtb H37Rv,Arbovirus inh,YopH inh,RecA splice inh,Mtb bLac sens,others
CCCN[C@@H]1C(=O)N2C(C(=O)OCCC)=C(C)CS[C@H]12,x,x,x,1.1,-11,
CC(C)C(=O)NCCc1nc2ccccc2n1CCCOc1ccc(Cl)cc1,11%,-9,-21,4.7,62,
COC(=O)C(NC(C)=O)(Nc1cc(C)ccn1)C(F)(F)F (configuration not stated),-5%,x,x,0.0,-8,
COc1cccc(Nc2nnc(SCc3nc4ccccc4s3)s2)c1,8%,27,-17,1.3,4,
Cc1cccn2cc(CCNS(=O)(=O)c3ccc4c(c3)OCCO4)nc12,1%,1,-44,-2.0,-2,
COc1ccc(CCNC(=O)CC(Cc2ccccc2)C(=O)O)cc1OC (configuration not stated),x,x,x,-1.7,-1,
CCOC(=O)c1[nH]c(C)c(C(=O)OCC(=O)N2CCCCC2C)c1C (configuration not stated),-10%,2,-28,-1.4,-2,
CCSc1nnc(-c2sc3nnc(-c4ccccc4)c(-c4ccccc4)c3c2N)o1,6%,-6,-49,-19,10,
CC(C)(C)n1nc2c(c1NC(=O)C1CC(=O)N(c3ccc(Cl)cc3)C1)CS(=O)(=O)C2 (configuration not stated),x,x,x,0.5,u,
CC(=O)Oc1ccc(C2(C)CC(C)(C)NC(=S)N2C)c(OC(C)=O)c1 (configuration not stated),4%,-4,x,0.3,-2,
CCN(CC)C(=O)C1CCCN(c2ccc([N+](=O)[O-])cc2)C1 (configuration not stated),-5%,12,x,1.3,2,
COc1ccc(-n2cnc3c(cnn3CCC#N)c2=N)cc1,-1%,-3,1,1.3,2,
CCOc1cc2[nH]c(=O)n(CCC(=O)NCc3ccc(OC)cc3)c(=O)c2cc1OCC,-2%,-2,16,-1.6,1,
COc1ccc(C)c2sc(=NC(=O)c3ccccc3)n(C)c12,x,-5,-2,0.6,-4,
COC(=O)CS(=O)(=O)c1cc(Br)cc2c1N(C(C)=O)CC2,6%,8,-48,0.3,-12,
COc1cc(C(=O)NCCC(C)C)ccc1OCc1ccc(Cl)cc1Cl,72%,8,-21,3.1,89,
CCc1ccc(C2CC(c3ccc(Cl)cc3)=NNC2=O)cc1 (configuration not stated),8%,-8,-25,6.2,11,
